Bfl-1 A1 inh = inhibitors of the anti-apoptotic protein A1, read as caspase activation; caspase activation, % (concentration not given with the values); MEF A1-2A-BIM cells, Caspase-Glo 3/7 luminescence, 3 h; percent of clofoctol response, vehicle zero; 330,000 tested, 0.066% active;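 active = over half of replicate activation scores above 10%, or exactly half above 10 with the replicate mean above 10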;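 note: wells of about 30 µL received 50 nL stock; many hits fall short of the cut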
Calb FLC = C. albicans growth modulation with fluconazole; C. albicans CaCi-2 (fluconazole-resistant clinical isolate) + fluconazole, Alamar Blue growth, 48 h; growth inhibition, % (test concentration not listed); 300,000 tested, 0.57% active; AID 1979;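 active = most replicates above 75%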;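 note: all wells also contain fluconazole at 8 µg/ml as a sub-toxic cotreatment; 0% = median of DMSO wells and 100% = median of geldanamycin control wells; wells of about 8 µL received 7.5 nL stock; the first replicate is given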
Beta apoptosis = blocks beta cell apoptosis | INS-1E cytokine-induced death, ATP luminescence, 48 h; percent of positive-control rescue, neutral wells zero | protection from apoptosis, % (concentration not given with the values) | 300,000 tested, 0.8% active | AID 435005;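 active = all replicates at 75% or more, or half of them and the mean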;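 note: 0% = cytokine-treated negative control wells and 100% = positive control rescue; higher means more ATP so stronger rescue from cytokine killing; wells of about 40 µL received 100 nL stock; the first replicate is given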
LANA-H2A inh = blocks KSHV LANA binding to histone H2A/H2B; Q9QR71; cell-free LANA-H2A/H2B peptide, fluorescence polarization; inhibition, % (concentration not given with the values); 320,000 tested, 0.6% active; in the data active = inhibition mostly above about 10%, no sharp cut-off; inactive = mostly below about 6.7%;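 note: stock transfer was 7.5 nL into about 10 µL; 0% = median of vehicle wells and 100% = median of positive control wells; one replicate is shown; the record names a cut of 25% in any replicate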
Target sequence (Q9QR71 whole entry, looked up): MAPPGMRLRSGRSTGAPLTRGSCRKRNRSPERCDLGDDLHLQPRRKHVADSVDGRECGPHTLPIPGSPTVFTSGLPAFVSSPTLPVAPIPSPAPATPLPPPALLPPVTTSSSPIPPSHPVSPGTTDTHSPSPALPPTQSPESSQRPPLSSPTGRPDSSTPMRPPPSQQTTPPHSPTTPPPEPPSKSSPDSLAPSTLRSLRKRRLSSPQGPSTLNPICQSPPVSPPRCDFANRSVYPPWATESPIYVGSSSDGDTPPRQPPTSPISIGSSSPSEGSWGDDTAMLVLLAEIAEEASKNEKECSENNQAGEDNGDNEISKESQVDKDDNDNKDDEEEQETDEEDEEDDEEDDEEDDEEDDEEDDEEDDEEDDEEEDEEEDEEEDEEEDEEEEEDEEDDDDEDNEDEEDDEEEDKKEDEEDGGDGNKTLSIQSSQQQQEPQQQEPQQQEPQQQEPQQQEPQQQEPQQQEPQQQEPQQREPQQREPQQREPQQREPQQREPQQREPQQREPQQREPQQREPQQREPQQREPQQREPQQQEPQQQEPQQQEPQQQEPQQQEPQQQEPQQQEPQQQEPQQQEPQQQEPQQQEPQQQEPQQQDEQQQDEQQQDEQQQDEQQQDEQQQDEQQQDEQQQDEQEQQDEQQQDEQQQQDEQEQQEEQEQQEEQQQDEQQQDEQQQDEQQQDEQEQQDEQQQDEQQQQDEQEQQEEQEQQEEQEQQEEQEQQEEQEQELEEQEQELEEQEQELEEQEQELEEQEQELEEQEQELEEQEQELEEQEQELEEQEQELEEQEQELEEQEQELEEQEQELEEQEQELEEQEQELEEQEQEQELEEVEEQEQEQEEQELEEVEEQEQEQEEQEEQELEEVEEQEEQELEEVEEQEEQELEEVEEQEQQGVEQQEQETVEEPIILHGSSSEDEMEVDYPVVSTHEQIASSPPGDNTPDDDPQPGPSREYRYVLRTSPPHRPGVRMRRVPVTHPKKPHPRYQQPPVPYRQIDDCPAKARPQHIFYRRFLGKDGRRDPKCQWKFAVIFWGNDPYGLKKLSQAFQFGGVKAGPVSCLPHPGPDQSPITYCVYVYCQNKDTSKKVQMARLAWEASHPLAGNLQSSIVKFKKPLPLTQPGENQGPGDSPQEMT
Ecoli rRNA inh = selective bacterial rRNA inhibition in E. coli; E. coli WT GFP vs humanized-ribosome RFP mutants, fluorescence, 24 h; stronger effect = lower value; DMSO median 0, no signal -100; GFP signal change (wild-type ribosome), % (no concentration beside the values); 350,000 tested, 1.6% active; AID 720706;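 active = significant combined selectivity score with lowered wild-type GFP, culture density cut under 30%, mutant RFP and density less affected; inactive = any of these conditions unmet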; note: one replicate is shown; some compounds called inactive have numbers as strong as hits
ALR H2O2 inh = human ALR oxidase inhibition via reduced H2O2 | P55789 | purified ALR, DTT oxidation, H2O2 HRP-luminol luminescence | inhibition, % (test concentration not listed) | 290,000 tested, 3.8% active;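 active = mean and each replicate at 75% or more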;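 note: stock transfer was 7.5 nL into about 7.5 µL; 0% = neutral wells and 100% = wells with inactivated enzyme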
T cruzi inh = blocks replication of Trypanosoma cruzi; inhibition, % (concentration not given with the values); T. cruzi beta-gal in NIH3T3, luminescence, 90 h; 300,000 tested, 1.4% active;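 active = mean inhibition across valid replicates above about 55%, limit read from the data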;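 note: signal also drops with host cell toxicity which is not excluded here; 0% = plate median of DMSO wells and 100% = zero luminescence signal; higher percent means less beta-gal luminescence so fewer parasites; stock transfer was 50 nL into about 50 µL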
Beta2AR agonist = human beta-2 adrenergic receptor agonism by FAP. P07550. Am2.2-beta2AR cells, FAP receptor internalization, flow cytometry; reference of the scale not given here. response, % (test concentration not listed). 340,000 tested, 0.43% active;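 active = response above a set limit, near 3 SD of response in nonfluorescent compounds, cut at about 42% in these data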;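 note: stock transfer was 100 nL into about 11 µL; a reference agonist was the positive control; negative values mostly stem from fluorescent compounds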
Ecoli rRNA inh OD600 = recorded beside Ecoli rRNA inh, whose call it bears; OD600 change, %; measured here: OD600 growth;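 optical density of the mix in the first replicate; 0 = DMSO median and -100 = no signal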
Ecoli rRNA inh RFP = also measured in Ecoli rRNA inh; calls as there; RFP signal change, %; measured here: RFP humanized mutant strains;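 first replicate; 0 = DMSO median and -100 = no signal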
The depositor's hits bear a star; x = no result given. This is a subset, so the mix of outcomes need not match the whole.

1) Cc1ccccc1N1CCN(S(=O)(=O)c2ccc3ccccc3c2)CC1
2) CC(C)C1CCN(C(=O)C2CCC(=O)N(CCc3ccc(Cl)cc3)C2)CC1 (stereo not drawn)
3) CC1(C)NC(=O)N(CC(=O)N2CCN(S(=O)(=O)c3cc(Cl)ccc3Cl)CC2)C1=O
4) COc1ccc(-c2c(C)nc3c(-c4ccc(F)cc4)cnn3c2N)cc1
5) CC(C)COc1nc2ccccc2nc1N1CCN(C)CC1
6) CC(=O)N1CCc2cc(S(=O)(=O)NC(C(=O)Nc3nc(C)cs3)C(C)C)ccc21 (stereo not drawn)
7) CC1CCc2c(sc(NC(=O)/C=C/c3cccs3)c2C(=O)O)C1 (stereo not drawn)
8) O=C(CN1C(=O)c2ccc([N+](=O)[O-])cc2C1=O)NC1CCS(=O)(=O)C1 (stereo not drawn)

entry no.	1	2	3	4	5	6	7	8
Bfl-1 A1 inh	0.2	0.2	-0.8	-1.3	0.5	-0.1	0.9	1.0
Calb FLC	-4	-8	x	-1	-24	5	-3	-4
Beta apoptosis	-2	7	-1	2	-7	x	-8	0
LANA-H2A inh	0.8	3.0	-2.3	4.5	2.8	5.8	-0.4	4.9
Ecoli rRNA inh	4	-18	5	9	-2	x	-56	0
Ecoli rRNA inh OD600	0	-34	6	10	-6	x	-80	1
Ecoli rRNA inh RFP	-0.2	-4.8	-0.8	-2.0	2.3	x	-30	-3.0
ALR H2O2 inh	0	-6	x	4	-36	-1	17	-20
T cruzi inh	18	19	x	-10	15	9	-11	-7
Beta2AR agonist	-4	-11	-7	-2	8	3	3	-3

9) O=[N+]([O-])c1cc(CN(CCO)CCO)ccc1O
10) CCN(CC)c1ccc2cc(-c3nc4ccccc4n3C)c(=O)oc2c1
11) O=C(O)c1cc(S(=O)(=O)Nc2ccc3cn[nH]c3c2)ccc1Br
12) CCc1cc(C(=O)N(CCCOC)c2c(N)n(Cc3ccccc3)c(=O)[nH]c2=O)sc1C
13) Cc1ccc(Cn2c(=O)c3ccccc3n3c(CCC(=O)O)nnc23)cc1
14) COc1ccc(NC(=O)CCN2C(=O)/C(=C/c3ccc4c(c3)OCO4)SC2=S)cc1
15) O=C(O)CCCc1nc2ccccc2s1
16) COc1ccc(CNC(=O)CN(C(=O)c2ccc(CN3CCOCC3)o2)C2CCCC2)cc1

entry no.	9	10	11	12	13	14	15	16
Bfl-1 A1 inh	0.2	1.6	-0.5	0.3	0.1	1.5	-4.7	0.2
Calb FLC	5	1	x	-1	-3	4	-2	-14
Beta apoptosis	-2	40	-3	2	-9	5	-10	-3
LANA-H2A inh	-7.2	-3.1	-1.8	-0.5	-3.6	2.6	0.4	-4.1
Ecoli rRNA inh	7	x	2	-1	8	-15	x	x
Ecoli rRNA inh OD600	13	x	3	6	19	-4	x	x
Ecoli rRNA inh RFP	5.6	x	-0.8	0.8	-2.8	-8.4	x	x
ALR H2O2 inh	-5	-4	43	-15	x	-3	4	-4
T cruzi inh	5	20	x	3	8	-2	0	-19
Beta2AR agonist	-4	25	8	2	5	8	-2	2

Molecules shown so far with a carbonyl joined to an NH by a bond outside any ring:
6) CC(=O)N1CCc2cc(S(=O)(=O)NC(C(=O)Nc3nc(C)cs3)C(C)C)ccc21 (stereo not drawn)
7) CC1CCc2c(sc(NC(=O)/C=C/c3cccs3)c2C(=O)O)C1 (stereo not drawn)
8) O=C(CN1C(=O)c2ccc([N+](=O)[O-])cc2C1=O)NC1CCS(=O)(=O)C1 (stereo not drawn)
14) COc1ccc(NC(=O)CCN2C(=O)/C(=C/c3ccc4c(c3)OCO4)SC2=S)cc1
16) COc1ccc(CNC(=O)CN(C(=O)c2ccc(CN3CCOCC3)o2)C2CCCC2)cc1

entry no.	6	7	8	14	16
Bfl-1 A1 inh	-0.1	0.9	1.0	1.5	0.2
Calb FLC	5	-3	-4	4	-14
Beta apoptosis	x	-8	0	5	-3
LANA-H2A inh	5.8	-0.4	4.9	2.6	-4.1
Ecoli rRNA inh	x	-56	0	-15	x
Ecoli rRNA inh OD600	x	-80	1	-4	x
Ecoli rRNA inh RFP	x	-30	-3.0	-8.4	x
ALR H2O2 inh	-1	17	-20	-3	-4
T cruzi inh	9	-11	-7	-2	-19
Beta2AR agonist	3	3	-3	8	2

Continued:
17) CC(C)(C)c1ccc(S(=O)(=O)N2CCN(c3ccccn3)CC2)cc1
18) CCOc1ccc(-c2ncncc2-c2ccc(OC)c(OC)c2)c(O)c1
19) CCCNC(=O)C(Cc1cccc(C#N)c1)NC(=O)c1ccc(C#N)cc1 (stereo not drawn)
20) CC1=C(C(=O)OCC2CCCO2)C(c2coc3ccc(C)cc3c2=O)C2=C(CCCC2=O)N1 (stereo not drawn)
21) COc1ccc(C)cc1NCC(=O)Nc1ccc(C(C)(C)C)cc1
22) Fc1cc(F)cc(NC(=S)NN2CCOCC2)c1
23) O=C(c1ccco1)N1CCN(C(=O)C2CC2)CC1
24) C/C(=N\NC(=O)Cc1cccn1C)c1cccc2ccccc12

entry no.	17	18	19	20	21	22	23	24
Bfl-1 A1 inh	-0.7	-0.4	1.1	0.3	-0.2	0.2	-1.5	1.0
Calb FLC	0	6	x	-1	-3	-2	4	1
Beta apoptosis	-15	-1	-3	-3	0	-6	-3	-1
LANA-H2A inh	-3.7	0.9	0.9	-1.8	-3.0	-3.0	-8.1	1.9
Ecoli rRNA inh	9	-1	7	0	x	5	2	x
Ecoli rRNA inh OD600	9	3	11	-13	x	12	3	x
Ecoli rRNA inh RFP	-0.2	-0.3	-11	-0.5	x	-0.5	-1.3	x
ALR H2O2 inh	-1	x	-6	-8	-2	31	-4	0
T cruzi inh	16	9	x	1	21	-20	2	-32
Beta2AR agonist	-8	-3	-4	-24	-3	-1	3	13

25) COc1ccccc1NC(=O)Nc1nc(CC(=O)Nc2ccccc2F)cs1
26) CN(CC(=O)Nc1ccccc1C(F)(F)F)C(=O)C1CCN(S(=O)(=O)c2ccc3c(c2)OCCO3)CC1
27) Cc1ccc(NC(=O)CSCc2cc(=O)n3cc(C)sc3n2)cc1
28) COc1ccc(CC(=O)NC(C)CCc2ccccc2)cc1 (stereo not drawn)
29) COc1ccc(Cl)cc1Nc1nc2ccc(C)cc2n2cnnc12
30) CCOC(=O)N1CCC(NS(=O)(=O)c2cc(C(=O)OC)n(C)c2)CC1
31) CC(Oc1ccccc1)C(=O)Nc1ccccc1F (stereo not drawn)
32) COc1ccc(Cl)cc1C(=O)Nn1cnnc1

entry no.	25	26	27	28	29	30	31	32
Bfl-1 A1 inh	0.1	-0.4	0.3	-0.1	0.3	0.0	0.4	-0.9
Calb FLC	0	-7	-2	7	0	-3	3	0
Beta apoptosis	x	1	2	0	18	-4	-5	x
LANA-H2A inh	-2.1	-5.2	0.9	-2.2	-2.2	-1.1	3.1	1.3
Ecoli rRNA inh	-31	6	3	3	8	-3	-1	13
Ecoli rRNA inh OD600	-30	1	6	1	4	-1	-3	9
Ecoli rRNA inh RFP	-3.4	0.7	-2.1	-4.0	-1.1	-7.3	-5.5	0.1
ALR H2O2 inh	x	1	-6	-14	-7	3	-5	x
T cruzi inh	-2	0	-1	5	10	4	-1	-18
Beta2AR agonist	1	3	1	3	0	3	0	5

33) Nc1c(-c2ccc(Cl)cc2)cnc2c(-c3ccc(F)cc3)cnn12
34) Cn1c(=O)c2c(nc(Br)n2CCSc2nnnn2-c2ccccc2)n(C)c1=O
35) O=C(Oc1cccc([N+](=O)[O-])c1)c1ccc2c(=O)n3c(nc2c1)CCC3
36) O=C(NNc1cc(N2CCOCC2)nc(N2CCOCC2)n1)C12CC3CC(CC(C3)C1)C2
37) CCOC(=O)C1=C(CS(=O)(=O)c2ccccc2)NC(=O)NC1c1cccc(OC)c1 (stereo not drawn)
38) COCc1[nH]nc2c1C(c1ccc(OC)c(OC)c1)C(C#N)=C(N)O2 (stereo not drawn)
39) C/C(=N/NC(=O)c1ccncc1)c1ccc(NC(=O)c2ccccc2)cc1
40) COc1ccc(F)cc1S(=O)(=O)Nc1ccncc1

entry no.	33	34	35	36	37	38	39	40
Bfl-1 A1 inh	-1.8	0.6	0.2	0.6	1.0	1.9	-0.8	0.2
Calb FLC	47	4	x	-2	-2	-3	-1	7
Beta apoptosis	11	0	-2	-1	0	-5	1	-4
LANA-H2A inh	1.3	4.4	-2.5	2.6	-3.4	6.5	0.1	6.1
Ecoli rRNA inh	3	x	-2	x	1	x	5	8
Ecoli rRNA inh OD600	12	x	1	x	-6	x	7	6
Ecoli rRNA inh RFP	-0.1	x	1.4	x	1.1	x	-0.7	-1.9
ALR H2O2 inh	-3	63	9	45	-17	23	-16	-16
T cruzi inh	11	15	x	4	-14	-6	-2	5
Beta2AR agonist	5	-3	-4	-3	-2	4	11	0

41) CC(=O)NC(C(=O)NCC(N)=O)C(C)C (stereo not drawn)
42) Cn1c(=O)c2c(nc(OCc3ccccc3)n2C)n(C)c1=O
43) O=[N+]([O-])c1ccc(COn2nnc3ccccc32)cc1
44) CCOc1ccc(CCNC(=O)C2CCCN(C(=O)N(C)C)C2)cc1OCC (stereo not drawn)
45) O=C(CN1C(=O)CSc2ccccc21)Nc1ccccc1C(=O)N1CCOCC1
46) S=C(NCc1ccccc1)NN1CCOCC1
47) COCCN(C(=O)CNC(=O)c1ccco1)C(C(=O)NC1CCCC1)c1cccs1 (stereo not drawn)
48) Cc1ccc(C(=O)COC(=O)COc2ccc(C)c(C)c2)cc1
49) CC(NC(=O)C(=O)N1CCOCC1)C(c1cccs1)N1CCN(c2ccc(F)cc2)CC1 (stereo not drawn)
50) CN(C)CCCNCC(=O)NN(c1ccccc1)c1ccccc1
51) CSc1cccc(NC(=S)N2CCC(N(C)C3CCCCCC3)CC2)c1

entry no.	41	42	43	44	45	46	47	48	49	50	51
Bfl-1 A1 inh	-0.4	-0.6	-0.8	1.4	-0.6	0.2	0.0	0.8	0.2	-0.4	0.7
Calb FLC	-5	-1	-6	7	-5	30	-34	-11	-10	-7	-4
Beta apoptosis	9	1	-3	-4	1	-11	-4	-2	-7	-3	-7
LANA-H2A inh	2.9	0.2	-1.7	0.0	3.0	2.9	2.1	-2.9	1.3	-6.3	3.6
Ecoli rRNA inh	x	-4	4	x	x	16	x	18	1	15	7
Ecoli rRNA inh OD600	x	14	4	x	x	9	x	12	7	4	-7
Ecoli rRNA inh RFP	x	2.8	-0.5	x	x	2.0	x	2.0	-0.2	-5.1	-4.1
ALR H2O2 inh	-12	-17	-4	3	-20	x	-1	-13	98*	41	2
T cruzi inh	-4	-1	-7	9	-17	-6	-11	-1	-26	-7	33
Beta2AR agonist	-3	-6	-11	13	-12	4	-7	0	2	x	10
